Assay outcomes (PubChem BioAssay)
rRNA inh HTS – reduced GFP signal of wild-type E. coli, primary screen, bacterial rRNA inhibitor project, GFP/RFP fluorescence, OD600, single point. E. coli WT GFP vs humanized-ribosome RFP mutants, 24 h; active compounds read low; DMSO median 0, no signal -100. AID 720706, 2013. GFP signal change (wild-type ribosome), % (no concentration beside the values). hit rate 1.6% among 350,000;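 active = significant combined selectivity score with lowered wild-type GFP, culture density cut under 30%, mutant RFP and density less affected; inactive = any of these conditions unmet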; note: one replicate is shown; some compounds called inactive have numbers as strong as hits
rRNA inh HTS OD600 – further read-out of rRNA inh HTS, marked with its call; OD600 change, %; measured here: OD600 growth;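 optical density of the mix in the first replicate; 0 = DMSO median and -100 = no signal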
rRNA inh HTS RFP – further read-out of rRNA inh HTS, marked with its call; RFP signal change, %; measured here: RFP humanized mutant strains;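 first replicate; 0 = DMSO median and -100 = no signal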
Active calls of the source: *. Some of the compounds tested (hit frequency here may not be typical).

1) Cc1noc(C)c1NC(=O)Nc1cccc2c1O[C@@H](CN(C)S(=O)(=O)c1cn(C)cn1)[C@@H](C)CN([C@@H](C)CO)C2=O
2) COc1ccc(S(=O)(=O)N(C)C[C@@H]2Oc3ccc(NC(=O)Nc4c(C)noc4C)cc3CC(=O)N([C@H](C)CO)C[C@H]2C)cc1
3) COc1ccccc1-c1ccc2c(c1)[C@H]1[C@H](CCN1S(=O)(=O)c1cn(C)cn1)[C@H](CO)N2
4) COC(=O)[C@H](CC(C)C)NS(=O)(=O)c1ccc(F)cc1Br
5) CO[C@H]1CN(C)C(=O)c2cc(NC(=O)Nc3ccccc3F)ccc2OC[C@@H](C)N(CCC(F)(F)F)C[C@@H]1C
6) C[C@H]1CCCCO[C@H](CN(C)C(=O)Nc2ccccc2)[C@@H](C)CN([C@@H](C)CO)C(=O)c2cc(NC(=O)Nc3ccc4c(c3)OCO4)ccc2O1
Screen / compound no.,1,2,3,4,5,6
rRNA inh HTS RFP,-0.4,-3.6,1.0,5.4,1.3,3.6
rRNA inh HTS OD600,5,5,4,-6,1,-3
rRNA inh HTS,2,-1,3,-7,-3,-1

7) COc1ccc(S(=O)(=O)N(C)C[C@@H]2Oc3ccc(NC(=O)CCC(F)(F)F)cc3CC(=O)N([C@H](C)CO)C[C@@H]2C)cc1
8) O=C1C(=Cc2cn(-c3ccccc3)nc2-c2ccc(OCc3ccc(Cl)cc3)cc2)SC(=S)N1CCS(=O)(=O)O
9) COc1ccc(CN(C)C[C@@H]2Oc3ccc(NC(=O)Cc4cn(C)c5ccccc45)cc3C(=O)N([C@@H](C)CO)C[C@H]2C)cc1
10) Cc1noc(C)c1NC(=O)Nc1ccc2c(c1)CC(=O)N([C@@H](C)CO)C[C@@H](C)[C@H](CN(C)C(=O)Nc1ccccc1)O2
11) COc1ccccc1CN1[C@@H]2CN(C(=O)C3CCOCC3)c3ccccc3[C@@H]2[C@@H]1CO
12) O=C1NC(Cc2ccc(O)cc2)c2nc3ccc(Cl)cc3c(=O)n2-c2cc3ccccc3cc21 (stereo unspecified)
Screen / compound no.,7,8,9,10,11,12
rRNA inh HTS RFP,-2.2,-2.3,1.6,-1.0,-0.8,2.5
rRNA inh HTS OD600,-2,19,-6,21,-1,4
rRNA inh HTS,1,-3,-1,3,0,3

13) O=C(C[C@H]1C[C@@H]2c3cc(NC(=O)c4cccnc4)ccc3O[C@@H]2[C@@H](CO)O1)NCCN1CCCCC1
14) C[C@@H]1CN([C@H](C)CO)C(=O)c2cc(NS(=O)(=O)c3ccc(F)cc3)ccc2O[C@H]1CN(C)C(=O)Nc1ccc2c(c1)OCO2
15) C[C@@H](NC(=O)[C@@H]1N[C@@H]2c3ccc(-c4cncnc4)c(=O)n3C[C@@H]2[C@H]1CO)c1ccccc1
16) C[C@H]1CN([C@@H](C)CO)C(=O)c2cccc(NS(=O)(=O)c3ccc(F)cc3)c2O[C@H]1CN(C)CC1CCCCC1
17) C[C@H](CO)N1C[C@H](C)[C@H](CN(C)C(=O)Nc2ccc(C(F)(F)F)cc2)OCCCC[C@H](C)Oc2ccc(NC(=O)Nc3ccc(C(F)(F)F)cc3)cc2C1=O
18) Cc1ccc(S(=O)(=O)N(C)C[C@@H]2Oc3cc(C4=CCCC4)ccc3S(=O)(=O)N([C@H](C)CO)C[C@H]2C)cc1
Screen / compound no.,13,14,15,16,17,18
rRNA inh HTS RFP,-2.4,1.3,-1.2,3.5,0.1,-0.2
rRNA inh HTS OD600,2,7,-1,5,6,1
rRNA inh HTS,1,3,1,2,3,-1

19) Cn1c(/N=C(\N)c2ccccc2)nc2ccccc21
20) CN(C)c1cccc(-c2cc(Nc3ccc(C(C)(C)C)cc3)ncn2)c1
21) O=C(O)C[C@H]1C[C@H]2c3cc(NC(=O)C4CCOCC4)ccc3O[C@H]2[C@H](CO)O1
22) C[C@H](CO)N1C[C@H](C)[C@H](CN(C)S(=O)(=O)c2cn(C)cn2)Oc2ncc(-c3cccc(F)c3)cc2C1=O
23) O=C(C[C@H]1C[C@@H]2c3cc(NC(=O)Nc4ccccc4)ccc3O[C@@H]2[C@@H](CO)O1)NCC(F)(F)F
24) C[C@@H]1CN([C@@H](C)CO)C(=O)c2cccc(NC(=O)CCCCCC(=O)Nc3ccccc3N)c2O[C@H]1CN(C)C(=O)Nc1cccc2ccccc12
Screen / compound no.,19,20,21,22,23,24
rRNA inh HTS RFP,2.6,-0.8,-1.0,-1.2,0.7,3.4
rRNA inh HTS OD600,14,-19,6,-1,-8,-8
rRNA inh HTS,-1,-9,2,-4,-2,3

25) Cc1ccc(S(=O)(=O)Nc2ccc3c(c2)C(=O)N([C@H](C)CO)C[C@@H](C)[C@@H](CN(C)S(=O)(=O)c2cccs2)OCCCC[C@H](C)O3)cc1
26) COc1ccc(C#Cc2ccc([C@H]3[C@@H](CO)N4CCCCN(S(=O)(=O)c5ccccc5)C[C@H]34)cc2)cc1
27) O=S(=O)(c1cccs1)N1CCCCN2[C@H](C1)[C@H](c1ccc(/C=C/c3ccccc3)cc1)[C@@H]2CO
28) COc1ccc(S(=O)(=O)Nc2ccc3c(c2)C(=O)N([C@@H](C)CO)C[C@H](C)[C@H](CN(C)S(=O)(=O)c2ccc(Cl)cc2)O3)cc1
29) COc1ccc(S(=O)(=O)N(C)C[C@H]2Oc3c(NC(=O)Nc4ccccc4)cccc3C(=O)N([C@@H](C)CO)C[C@@H]2C)cc1
30) C[C@H]1CN([C@@H](C)CO)S(=O)(=O)c2ccc(-c3ccc(F)cc3)cc2O[C@H]1CN(C)C(=O)C1CCC1
Screen / compound no.,25,26,27,28,29,30
rRNA inh HTS RFP,-1.6,21,-4.1,3.7,-0.3,4.6
rRNA inh HTS OD600,-1,-6,14,-13,-10,-26
rRNA inh HTS,-2,-6,0,0,-4,-8

31) O=C(c1ccc2c(c1)OCO2)N1CCCCN2[C@H](CO)[C@@H](c3ccc(-c4ccccc4)cc3)[C@H]2C1
32) C[C@@H](NC(=O)C[C@@H]1C=C[C@@H](NC(=O)Nc2ccc3c(c2)OCO3)[C@H](CO)O1)c1ccccc1
33) C[C@H]1CN([C@@H](C)CO)C(=O)c2cc(NC(=O)Nc3cccc4ccccc34)ccc2O[C@H]1CN(C)Cc1ccc(C(=O)O)cc1
34) COc1ccc(S(=O)(=O)N2C[C@@H](O)COC[C@@H]3O[C@H](CC(=O)N(C)C)CC[C@H]32)cc1
35) CO[C@@H]1CN(C)C(=O)c2cc(NC(=O)CC(F)(F)F)ccc2OC[C@@H](C)N(C(=O)C2CC2)C[C@H]1C
36) COC(=O)C[C@H]1C=C[C@@H](NC(=O)NC2CCCCC2)[C@@H](CO)O1
Screen / compound no.,31,32,33,34,35,36
rRNA inh HTS RFP,-5.5,-0.2,-0.7,-3.0,0.1,0.5
rRNA inh HTS OD600,-70,-4,8,-3,2,14
rRNA inh HTS,-54,-9,-1,-1,1,2

37) C[C@H](CO)N1C[C@H](C)[C@H](CN(C)S(=O)(=O)c2cn(C)cn2)Oc2ccc(NC(=O)CCN3CCOCC3)cc2CC1=O
38) CC(C)C#Cc1ccc([C@@H]2[C@@H](CO)N3C(=O)CN(C(=O)c4ccccn4)C[C@H]23)cc1
39) CC(C)NC(=O)N[C@@H]1CC[C@H](CCNC(=O)C2CCCC2)O[C@H]1CO
40) CC(C)NC(=O)Nc1ccc2c(c1)C(=O)N([C@H](C)CO)C[C@@H](C)[C@H](CN(C)Cc1ccc(C(F)(F)F)cc1)O2
41) CN1CCN(C(=O)C[C@@H]2CC[C@@H]3[C@H](COC[C@@H](O)CN3C(=O)Nc3ccc(F)cc3)O2)CC1
42) COc1ccc(S(=O)(=O)Nc2ccc3c(c2)C(=O)N([C@H](C)CO)C[C@H](C)[C@@H](CN(C)S(=O)(=O)c2cccs2)OCCCC[C@H](C)O3)cc1
Screen / compound no.,37,38,39,40,41,42
rRNA inh HTS RFP,-2.1,0.9,0.8,3.4,-0.3,0.6
rRNA inh HTS OD600,-2,5,-1,-1,10,1
rRNA inh HTS,-4,-2,2,4,0,-5

43) COc1ccc2c3c(n(C)c2c1)[C@@H](CO)N(C(=O)c1ccccc1)CC31CN(Cc2ccccc2OC)C1
44) CCCCC[C@@H](C)N1C[C@H](COCc2ccccc2)Oc2cc(N3CCC[C@@H]3COC)ccc2S1(=O)=O
45) CC1C(=O)N(Cc2cn(Cc3ccco3)nn2)CCS(=O)(=O)N1Cc1ccc(-c2ccccc2Cl)cc1 (stereo unspecified)
46) CCCC#Cc1ccc2c(c1)O[C@H](CN(C)C(=O)NC(C)C)[C@@H](C)CN([C@H](C)CO)S2(=O)=O
47) COc1ccc(S(=O)(=O)N(C)C[C@@H]2Oc3ccc(NC(=O)Nc4cccc5ccccc45)cc3CC(=O)N([C@H](C)CO)C[C@H]2C)cc1
48) C[C@@H]1CN([C@H](C)CO)C(=O)c2cc(C#Cc3cccc(F)c3)cnc2O[C@@H]1CN(C)C(=O)c1ccccc1F
Screen / compound no.,43,44,45,46,47,48
rRNA inh HTS RFP,2.9,1.3,29,-4.8,-2.8,1.9
rRNA inh HTS OD600,-7,9,-20,0,0,-12
rRNA inh HTS,-4,-5,1,-4,-5,2

In another format: entries from further up
nr	rRNA inh HTS RFP	rRNA inh HTS OD600	rRNA inh HTS	Structure
44	1.3	9	-5	CCCCC[C@@H](C)N1C[C@H](COCc2ccccc2)Oc2cc(N3CCC[C@@H]3COC)ccc2S1(=O)=O
45	29	-20	1	CC1C(=O)N(Cc2cn(Cc3ccco3)nn2)CCS(=O)(=O)N1Cc1ccc(-c2ccccc2Cl)cc1 (stereo unspecified)
46	-4.8	0	-4	CCCC#Cc1ccc2c(c1)O[C@H](CN(C)C(=O)NC(C)C)[C@@H](C)CN([C@H](C)CO)S2(=O)=O

(next part)
49) Cc1noc(C)c1NC(=O)Nc1ccc2c(c1)CC(=O)N([C@H](C)CO)C[C@H](C)[C@@H](CN(C)C(=O)NC(C)C)O2
50) CC(=O)N1[C@H](CO)[C@H](c2ccccc2)[C@H]1CNC(=O)c1ccncc1
51) CCN(CC(=O)NC(C)(C)C)C(=O)c1cccc(S(=O)(=O)N2CC3(C)CC2CC(C)(C)C3)c1 (stereo unspecified)
52) COCC#Cc1ccc([C@H]2[C@@H](CO)N3CCCCN(S(=O)(=O)c4ccccc4F)C[C@H]23)cc1
53) O=C(C[C@H]1C[C@H]2c3cc(NC(=O)Cc4ccncc4)ccc3O[C@H]2[C@H](CO)O1)NCc1ccccn1
54) NCC[C@@H]1CC[C@@H](NC(=O)C2CCCCC2)[C@H](CO)O1
Screen / compound no.,49,50,51,52,53,54
rRNA inh HTS RFP,-0.4,-4.2,-3.0,1.5,0.3,-0.4
rRNA inh HTS OD600,5,4,2,2,6,5
rRNA inh HTS,6,3,-1,0,2,0

55) CCOC(=O)c1cnn2c(SC)ncnc12
56) O=C(C[C@@H]1CC[C@@H]2[C@H](COC[C@@H](O)CN2S(=O)(=O)c2ccc(Cl)cc2)O1)NCCN1CCCCC1
57) Cn1c(=O)c2cc(NC(=O)NCc3ccc(Cl)cc3Cl)ccc2n1Cc1ccc(F)cc1
58) CO[C@H]1CN(C)C(=O)c2cccc(C#N)c2OCC[C@H]2CC[C@H](OC)[C@@H](CN(C)C(=O)[C@H]1C)O2
59) C[C@@H]1CN([C@@H](C)CO)C(=O)Cc2cc(NS(=O)(=O)c3cn(C)cn3)ccc2O[C@@H]1CN(C)Cc1ccc(C(=O)O)cc1
60) O=C(C[C@H]1CC[C@@H](NC(=O)Nc2cc(F)ccc2F)[C@@H](CO)O1)Nc1ccccc1
Screen / compound no.,55,56,57,58,59,60
rRNA inh HTS RFP,-1.4,-2.6,4.2,0.9,-1.0,-0.2
rRNA inh HTS OD600,-4,7,9,-3,18,-5
rRNA inh HTS,1,2,3,-3,6,-4

61) CC(=O)N(C)C[C@@H]1Oc2ncc(C#C[C@@H](C)O)cc2C(=O)N([C@@H](C)CO)C[C@H]1C
62) O=C1NC(=O)C2C3C=CC(C12)C1C(=O)NC(=O)C31 (stereo unspecified)
63) COc1cc(/C=N/NC(=O)c2ccc3nc[nH]c3c2)cc(OC)c1OC(C)=O
64) O=C(C[C@@H]1C[C@@H]2c3cc(NC(=O)c4ccc5c(c4)OCO5)ccc3O[C@@H]2[C@H](CO)O1)NCc1cccc(F)c1
65) O=C(N[C@@H]1CC[C@@H](CCNS(=O)(=O)c2ccccc2Cl)O[C@@H]1CO)c1ccccc1
66) COc1cccc(-c2cnc3c(c2)C(=O)N([C@@H](C)CO)C[C@@H](C)[C@@H](CN(C)C(C)=O)O3)c1
Screen / compound no.,61,62,63,64,65,66
rRNA inh HTS RFP,-0.4,2.2,11,0.1,-4.8,-1.2
rRNA inh HTS OD600,11,7,15,7,1,6
rRNA inh HTS,3,4,-6,4,0,7

67) CN(C)C(=O)[C@@H]1[C@@H](CO)[C@@H]2Cn3c(ccc(-c4ccccc4)c3=O)[C@@H]2N1C(=O)c1ccccn1
68) C[C@@H]1CN([C@@H](C)CO)C(=O)c2cc(NC(=O)Nc3cccc4ccccc34)ccc2O[C@@H](C)CCCCO[C@@H]1CN(C)S(=O)(=O)c1ccc(Cl)cc1
69) C[C@@H]1CN([C@@H](C)CO)C(=O)c2cc(-c3cccc(F)c3)cnc2O[C@H]1CN(C)C(=O)Nc1ccccc1F
70) OCc1cccc(-c2csc(C(O)(c3ccccc3)C(F)(F)F)n2)c1 (stereo unspecified)
71) Nc1ncnc2c1ncn2[C@@H]1O[C@H](CNC(=O)OC[C@@H](N)Cc2ccccc2)[C@@H](O)[C@H]1O
Screen / compound no.,67,68,69,70,71
rRNA inh HTS RFP,0.6,0.0,1.9,-8.8,-3.5
rRNA inh HTS OD600,1,4,-1,-40,1
rRNA inh HTS,2,1,-1,-36,0
